# PMP22 txn = PMP22 gene transcription modulation | S16 Pmp22-F2sN Schwann cells (luciferase reporters placed in the Pmp22 gene), FLuc/NLuc coincidence luminescence, 24 h | Potency, µM (doses to about 57.5 µM), inactives show top-dose activity change, negative = inhibition, most hits filed as inhibitors | actives 2% (n = 43,000) | AID 1508649; active = clear falling dose curves in both reporters; inconclusive = both reporters move, but less clearly or upward; inactive = either reporter flat; the % is the NLuc reporter signal; also: % is scaled to controls: 0 for no effect and ±100 for the full control effect; some results filed as inactive show a strong effect at the top dose
#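 S16(c9) Schwann cells with FLuc/NLuc coincidence reporter in the Pmp22 3' UTR; compounds pin-transferred, 24 h at 37C. Dual-luciferase read: FLuc first, then NLuc after Stop&Glo, each 10 min at room temperature.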
# HTT promoter inh = inhibits huntingtin promoter activity; Potency, µM (series often up to 57.5 µM), without a hit: at the top dose activity change, negative = inhibition, actives largely listed as inhibitors; HEK293 HTT promoter firefly luciferase reporter (activity 0% = vehicle and -100% = no light), 24 h; actives 0.93% (n = 48,000); active = well fitted inhibition curve with a large enough effect; inconclusive = small, poorly fitted or top-dose-only effect; inactive = no such curve, though single readings can be large or run the other way; also: nearly all actives have a fitted effect of over 50% in size
#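 Firefly luciferase signal from promoter-reporter HEK293 cells was scaled between vehicle (0%) and zero RLU (-100%). Compounds were tested at final concentrations of up to 57.5 uM over 24 h at 37 degrees C. PTC124 at 50 uM final served as control inhibitor.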
# Active calls of the source: *; ? = inconclusive; / = no result given; & = joins results of further samples; [ ] = another dose, or the depositor's remark. Potency is read from the fitted curve at half-maximal effect. The list is partial, so the mix of outcomes need not match the whole.
# The first five records as a preview:
canonical_smiles,PMP22 txn,HTT promoter inh
CN1CCN(CCNC(=O)c2cnn(-c3cccc(Cl)c3)c2C2CCN(C(=O)OC(C)(C)C)CC2)CC1,-16%,-9%
CCOc1ccc(CN2C(=O)c3ccccc3Sc3ccc(C(=O)NC4CCC(C)CC4)cc32)cc1 (configuration not stated),-22%,-33%
O=C(COc1ccccc1Cl)N(Cc1ccco1)Cc1ccco1,-5%,-13%
CC(C)(C)NC(=O)c1cnn2c(C(F)F)cc(-c3ccccc3)nc12,?,-2%
CCOc1ccccc1Nc1sc(C(=O)c2ccc(Cl)cc2)c(N)c1C#N,15µM*,-22%

# Main list, repeating the preview:
canonical_smiles,PMP22 txn,HTT promoter inh
CN1CCN(CCNC(=O)c2cnn(-c3cccc(Cl)c3)c2C2CCN(C(=O)OC(C)(C)C)CC2)CC1,-16%,-9%
CCOc1ccc(CN2C(=O)c3ccccc3Sc3ccc(C(=O)NC4CCC(C)CC4)cc32)cc1 (configuration not stated),-22%,-33%
O=C(COc1ccccc1Cl)N(Cc1ccco1)Cc1ccco1,-5%,-13%
CC(C)(C)NC(=O)c1cnn2c(C(F)F)cc(-c3ccccc3)nc12,?,-2%
CCOc1ccccc1Nc1sc(C(=O)c2ccc(Cl)cc2)c(N)c1C#N,15µM*,-22%
CCOc1ccccc1CNC(=O)Cc1ccc(NC(=O)N2CCCCc3ccccc32)cc1,?,?
CCOc1ccc(CCNC(=O)CS(=O)(=O)Cc2nc(-c3cccc(Cl)c3)oc2C)cc1,?,?
COC(=O)c1c(NC(=O)/C=C/c2ccc(OC)cc2)sc2c1CCC2,-26%,10%
O=C(NCCc1ccc(Cl)cc1)c1nnc(Cc2ccc(F)cc2)o1,-1%,-14%
O=C(CSc1ccc(-c2cccs2)nn1)Nc1ccccc1C(F)(F)F,2%,-15%
Cc1cc(C)cc(OCCSc2nc3ccc(NC(=O)c4cccs4)cc3s2)c1,-15%,-19%
Cc1ccc2nc3sc(C(=O)NCCCN(C)c4ccccc4)cc3cc2c1,?,16%
Cc1ccc(S(=O)(=O)NCCc2cn3ccsc3n2)c(C)c1,-9%,-4%
CCOc1ccc(CCNc2ncnc3onc(-c4ccc(Cl)cc4)c23)cc1,?,14µM*
CCOc1ccc(CCNC(=O)CCN2N=C(c3ccc(OC)cc3)CCC2=O)cc1OCC,-22%,?
O=S(=O)(Nc1ccc2nc(-c3ccc(F)cc3)oc2c1)c1ccccc1,6%,7%
COc1ccc(-c2cc3nc(C)c(CCC(=O)NCc4ccccc4Cl)c(C)n3n2)c(OC)c1,5%,-35%
O=C(CSc1ccc2nnc(CCNS(=O)(=O)c3ccccc3)n2n1)Nc1ccccc1C(F)(F)F,-14%,-14%
COc1cc2c(cc1OC)C(COc1cc(C)cc(C)c1)N(C(=O)c1ccc(S(=O)(=O)N3CCCC3)cc1)CC2 (configuration not stated),?,-24%
O=S(=O)(NCc1ccc(F)cc1)c1ccc(-c2cnc(C3CC3)o2)cc1,?,?
Cc1cc(C)cc(OC(C)C(=O)Nc2nonc2-c2ccc(Br)cc2)c1 (configuration not stated),-4%,-18%
Cc1ccc(NC(=O)C2CCN(S(=O)(=O)c3cccc4nsnc34)CC2)cc1F,-30%,-19%
Cc1ccc(NC(=O)C2CC(=O)N(c3ccc(OC(C)C)cc3)C2)cc1 (configuration not stated),0%,1%
CC(C)(C)C1CCC(CC2=C(O)c3ccccc3C(=O)C2=O)CC1 (configuration not stated),/,-19%
CN(C)S(=O)(=O)n1cc(/C=C(\NC(=O)c2ccccc2Cl)C(=O)NCCCn2ccnc2)c2ccccc21,?,-1%
O=C1CCCc2cc(S(=O)(=O)NCC3CCC(C(=O)NCc4ccc(F)cc4)CC3)ccc2N1 (configuration not stated),-6%,?
CCCOc1ccccc1C(=O)Nc1nc2c(s1)CCCC2,-40%,-26%
COc1ccc(S(=O)(=O)NCC(c2ccco2)S(=O)(=O)c2ccc(C)cc2)cc1C (configuration not stated),?,-19%
CC[N+](CC)(CC)CCOc1cccc(OCC[N+](CC)(CC)CC)c1OCC[N+](CC)(CC)CC,/,-1%&0%
COc1ccccc1-c1noc(CCCC(=O)NCc2ccco2)n1,-17%,-13%
COc1cccc(OC(=O)CSc2nnc(-c3ccc4c(c3)OCO4)o2)c1,-12%,-13%
Cc1ccc(S(=O)(=O)N(C)Cc2nc(-c3ccccc3)oc2C)cc1,?,0%
CCOc1ccc(S(=O)(=O)Nc2nc3ccccc3nc2Nc2ccc(OC)cc2)cc1,-10%,-2%
CCN(CC)C(=O)c1sc2c(c1C)c(=O)n(-c1ccccc1)c(=O)n2CC(=O)Nc1ccc(C)cc1C,-1%,0%
COc1ccc(OC)c(-c2csc(-c3c(N)c(C(=O)c4ccccc4)n4ccccc34)n2)c1,-36%,1%
Cc1noc(C)c1S(=O)(=O)NCCc1csc2nc(-c3ccc(F)cc3)nn12,?,?
CCCn1c(=O)c2sccc2n2c(CCCC(=O)Nc3ccccc3OCC)nnc12,5%,-11%
Cc1ccc(CNC(=O)CCSCc2cnn(-c3ccccc3)c2-n2cccc2)cc1,-3%,-14%
COc1ccc(-c2cc3nc(C)c(CCC(=O)N4CCN(c5ccc(F)cc5)CC4)c(C)n3n2)c(OC)c1,?,-21%
Cc1cc(Cl)ccc1NC(=O)CS(=O)(=O)c1cccc2nsnc12,-24%,-13%
COc1ccc(N2CCN(C(=O)c3nn(C)c4c3CSc3ccccc3-4)CC2)cc1,-7%,-15%
Cc1cc(F)ccc1NC(=O)c1csc2c1CCC(C)C2 (configuration not stated),?,53%[activator]
FC(F)(F)c1cccc(N2CCN(Cc3nnc(-c4ccccc4)o3)CC2)c1,-6%,-17%
Cc1ccc(S(=O)(=O)c2cn(CC(=O)Nc3ccc4c(c3)OCO4)c3ccc(F)cc3c2=O)cc1,14%,-9%
O=C(CC1N=C2c3ccccc3N=C(SCC(=O)Nc3ccccc3F)N2C1=O)NCc1cccs1 (configuration not stated),-1%,3%
Nc1cc(C(F)(F)F)ccc1S,/,-3%
O=S(=O)(c1ccc2nc(Nc3ccc(F)cc3)ccc2c1)N1CCCC1,-18%,-5%
CCOc1ccccc1-n1nnc(S(=O)(=O)c2ccc(C)cc2)c1N,?,-29%
O=C1CN(C(=O)c2ccc(Cl)cc2Cl)C(c2ccc(F)cc2)c2cc(F)ccc2N1 (configuration not stated),21%,?
COc1ccc(OC)c(/C=C/C(=O)Nc2ccc(C(=O)OCCC(C)C)cc2)c1,-8%,?
COc1ccc(-c2cc(-c3ccc(F)cc3)nc3c2COc2ccccc2-3)cc1,-10%,-14%
COc1ccccc1CNC(=O)c1nnn(CC(=O)Nc2c(C)cccc2C)c1N,-22%,-2%
Cc1cc(C)c2oc(-c3cccc(NC(=O)c4ccc(Br)o4)c3)nc2c1,-2%,-8%
Cc1ccc(S(=O)(=O)C(CNC(=O)C(=O)NCc2ccc(Cl)cc2)c2cccs2)cc1 (configuration not stated),-14%,-26%
CC(=O)N1CCC(N(Cc2ccco2)C(=O)Nc2cccc(C)c2)CC1,-3%,-2%
Cc1cc2nc(N(Cc3cccnc3)C(=O)c3ccc(Cl)s3)sc2cc1C,-3%,-15%
CC(C)[C@H](C(=O)Nc1ccc(C(=O)NO)cc1)c1ccccc1,/,162%[activator]
CCOC(=O)c1cccc(NC(=O)c2sc3nc[nH]c(=O)c3c2C)c1,-25%,59%[activator]
Cc1ccccc1C(=O)Nc1nnc(SCc2cc(=O)n3ccccc3n2)s1,-5%,-3%
Cc1cc2n(n1)CCC(=O)N2Cc1ccc(C(=O)Nc2cccc(C(F)(F)F)c2)cc1,?,-15%

# Going on with the list.
canonical_smiles,PMP22 txn,HTT promoter inh
O=C(Cn1ncc2c3ccccc3n(Cc3cccc(Cl)c3)c2c1=O)NCc1cccs1,8%,-12%
Cc1nn(CCC(=O)NC(C)C)c(=O)c2nn(-c3ccccc3)c(C)c12,-8%,12%
Cc1ccc(S(=O)(=O)n2nc(-c3ccc(Cl)cc3)nc2NCc2ccccc2)cc1,4%,-7%
CCOC(=O)c1ccc(NC(=O)c2sc3ccccc3c2Cl)cc1,2%,56%[activator]
O=C(NC1CCCCC1)c1ccc2c(c1)N(Cc1ccc(Cl)cc1)C(=O)c1ccccc1S2=O (configuration not stated),?,-21%
Cc1cc(NC(=O)c2oc3c(c2C)-c2[nH]ncc2CC3)ccc1Br,?,68%[activator]
CCOC(=O)c1c(S(=O)(=O)N2CCC(C(=O)NCc3cccc(OC)c3)CC2)c(C)n(C)c1C,10%,-6%
N=C1N=C(N)c2cc3ccccc3cc21,/,?
CCNC(=O)C1CCCN(c2ncnc3onc(C)c23)C1 (configuration not stated),1%,-8%
COc1cccc(NC(=O)c2oc3ccccc3c2NC(=O)c2ccc(C(F)(F)F)cc2)c1,-11%,2%
COc1ccc(CN2C(=O)C(NC(=O)c3ccccc3OC)(C(F)(F)F)N=C2c2ccccc2)cc1 (configuration not stated),-14%,-26%
Cc1oc(-c2cccc(Br)c2)nc1CSc1nc2ncccc2[nH]1,-56%,-25%

# 3 compounds out of the list above, ordered by the number in HTT promoter inh, descending:
molecule	HTT promoter inh
CCNC(=O)C1CCCN(c2ncnc3onc(C)c23)C1 (configuration not stated)	-8%
O=C(Cn1ncc2c3ccccc3n(Cc3cccc(Cl)c3)c2c1=O)NCc1cccs1	-12%
Cc1oc(-c2cccc(Br)c2)nc1CSc1nc2ncccc2[nH]1	-25%

# Next structures
canonical_smiles,PMP22 txn,HTT promoter inh
CCOC(=O)c1ccc(N2C(=O)c3[nH]nc(-c4ccc(C)cc4)c3C2c2ccc(O)cc2)cc1 (configuration not stated),?,?
COC(=O)c1ccc(NC(=O)c2c(-c3ccccc3)c(-c3ccccc3)nn(C)c2=O)cc1,3%,2%
CCOc1ccccc1C1C(C(=O)Nc2ccccc2)=C(C)Nc2c(C(=O)Nc3ccc(F)cc3)cnn21 (configuration not stated),-24%,?
CC1=C(C(=O)Nc2cccc(C(F)(F)F)c2)C(c2ccccn2)n2ncnc2N1 (configuration not stated),-2%,0%
CCc1cccc(NC(=O)c2cc(S(=O)(=O)N3CCCCCC3)cn2C)c1,-14%,-22%
COc1cccc(-c2ccc3c(N)c(C(=O)Nc4cc(F)ccc4F)sc3n2)c1,?,24%
Cc1ccc2nc(-c3ccc(C)c(NC(=O)Cc4ccccc4)c3)oc2c1,-25%,13µM*
CNC(=O)[C@H](Cc1ccccc1)NC(=O)[C@H](CC(C)C)[C@H](CSc1cccs1)C(=O)NO,/,-15%
O=C(NCc1ccccc1Cl)c1cc(-c2ccccc2)n[nH]1,-16%,26%
O=C1CC(c2ccc(F)cc2F)c2cc3c(cc2N1)OCO3 (configuration not stated),?,-22%
COC(=O)c1ccc(NC(=O)CSc2ccc(-c3sc(-c4ccccc4)nc3C)nn2)cc1,-13%,-5%
O=C(Cn1cnc2c(nc3n2CCCCC3)c1=O)Nc1cccc(C(F)(F)F)c1,-24%,-12%
Cc1ccc(NC(=O)C(=O)NCC(c2cccnc2)N2CCOCC2)cc1 (configuration not stated),5%,-5%
COc1cc(-c2cc3n(C)c(C)c(CCC(=O)O)c(=O)n3n2)cc(OC)c1OC,2%,1%
COc1ccc(-n2cc(C(=O)N(CCN(C)C)Cc3ccccc3)c3ccccc3c2=O)cc1,-11%,-4%
COc1cccc(CSc2nc3ccncc3n2CC(=O)Nc2ccc(OC)c(OC)c2OC)c1,-16%,-3%
CCOc1ccc(-n2ccnc2SCC(=O)Nc2cc(C)ccc2C)cc1,-25%,?
COc1ccccc1NC(=O)c1c(-c2ccc(C)cc2)nnc2ccccc12,-14%,10%
COc1ccc(C(=O)Nc2nc3c(s2)CCc2cc(OC)ccc2-3)cc1,?,-7%
COc1ccc(-c2noc(CSc3nnc(C)n3-c3ccc(C)c(C)c3)n2)c(OC)c1,-6%,-28%
Cc1ccc(CN(Cc2ccco2)C(=O)c2ccccc2Br)o1,-16%,?
COc1cccc(N2C(=O)C(CC(=O)Nc3ccc(F)cc3)N(CCC3=CCCCC3)C2=O)c1 (configuration not stated),?,?
CCCCN(C(=O)c1cccc(S(=O)(=O)N2CCCCC2)c1)C1CCS(=O)(=O)C1 (configuration not stated),-5%,-20%
Cc1cccc(-n2c(=O)c3c(c4cc(C)ccc4n3C)n(CC(=O)NCCC3=CCCCC3)c2=O)c1,?,-12%
CNC(=O)c1c(NC(=O)/C=C/c2ccccc2)sc2c1CCC2,?,-1%
CCC1=C(c2ccc(C)cc2)S(=O)(=O)N=C1N1CCC(C(=O)NCc2ccc(C)cc2)CC1,-6%,?
COc1ccc(-c2nn(C)c3sc(C(=O)N4CCN(c5ccccc5F)CC4)cc23)cc1OC,?,-11%
Cc1ccccc1NS(=O)(=O)c1ccc2[nH]c3c(c2c1)CCCCC3,?,-41%
COC(=O)c1ccccc1NC(=O)c1ccc2nc(Cc3ccccc3)oc2c1,27%,6%
O=c1oc2cc(O)ccc2cc1-c1nnc(Nc2ccccc2F)s1,-8%,96%[activator]

# Source: PubChem BioAssay
